Mtb growth: M. tuberculosis H37Rv growth inhibitors, H37Rv strain (AID 1626). 0.95% of 220,000 active. one-dose inhibition, % at 10 µM; IC50 in µM for titrated hits. M. tuberculosis H37Rv growth inhibition; higher % means a stronger effect;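 active means confirmed in a dose series; inconclusive means inhibition above 80% but not taken into the dose series; inactive means below 80% or under 30% at every dose of the series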;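 further: bacteria incubated seven days before Alamar blue readout; 0% = bacteria only wells and 100% = bacteria with antibiotic wells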
YopH PTP inh: YopH (Yersinia) phosphatase inhibition; fluorescence Ex485/Em525; inhibition, %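 (about 10 µM by stock and volumes)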; 0.16% of 140,000 active; AID 898;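 active means inhibition of 50% or more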;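 further: controls were vehicle for no effect and minimum signal wells for full effect; inactives centre near -20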
RecA intein inh: Mtb RecA intein splicing inhibition. cell-free RecA intein splicing, fluorescence. AID 2221. inhibition, %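 (about 9 µM by stock and volumes)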. 0.75% of 290,000 active; in the data active means inhibition above about 30%; inconclusive means no clear call, values can overlap the other calls;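 further: 0% = vehicle wells and 100% = reference inhibitor control wells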
Target sequence (P9WHJ3 whole entry, looked up): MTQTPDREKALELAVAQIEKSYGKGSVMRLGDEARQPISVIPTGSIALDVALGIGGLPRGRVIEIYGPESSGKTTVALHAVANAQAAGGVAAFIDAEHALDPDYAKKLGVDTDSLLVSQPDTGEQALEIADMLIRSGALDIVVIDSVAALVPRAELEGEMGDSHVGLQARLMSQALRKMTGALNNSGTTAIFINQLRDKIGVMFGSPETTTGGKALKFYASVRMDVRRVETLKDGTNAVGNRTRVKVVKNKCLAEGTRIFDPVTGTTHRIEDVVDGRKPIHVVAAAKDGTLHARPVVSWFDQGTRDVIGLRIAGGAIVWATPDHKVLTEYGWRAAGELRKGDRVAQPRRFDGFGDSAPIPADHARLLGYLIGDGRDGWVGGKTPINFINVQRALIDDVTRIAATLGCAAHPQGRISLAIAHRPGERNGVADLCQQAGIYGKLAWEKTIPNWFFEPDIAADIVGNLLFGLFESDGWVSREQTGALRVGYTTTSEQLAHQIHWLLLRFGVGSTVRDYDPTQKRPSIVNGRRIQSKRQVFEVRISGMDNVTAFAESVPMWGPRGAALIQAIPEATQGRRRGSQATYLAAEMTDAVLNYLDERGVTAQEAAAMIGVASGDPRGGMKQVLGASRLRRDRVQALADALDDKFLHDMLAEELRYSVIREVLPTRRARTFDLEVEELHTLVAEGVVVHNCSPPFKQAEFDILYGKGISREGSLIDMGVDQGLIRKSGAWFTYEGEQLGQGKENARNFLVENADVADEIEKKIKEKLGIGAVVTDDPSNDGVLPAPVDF
Mtb bLac sens: beta-lactam sensitization of Mtb H37Rv; AID 434955; 0.27% of 330,000 active; M. tuberculosis H37Rv growth with meropenem, percent inhibition; hits of this screen are not shown here; inhibition, % at 25 µM;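 active means about 74% or more and at least 40 points above the plate without the antibiotic, then above 30% in a dose series; inconclusive means first-round hits that could not be retested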;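 further: growth measured after seven days incubation then overnight dye step; 0% = bacteria only wells and 100% = bacteria with antibiotic; twin plates without the antibiotic show which effects depend on it; some results filed as inactive read as strong as hits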
Arbovirus inh: antivirals against arbovirus infection; inhibition, % at 10 µM; arbovirus infection cell-based antiviral screen; 0.37% of 200,000 active; AID 1251;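 active means inhibition from about 30%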;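 further: bluetongue infection of BSR cells; cell survival read as ATP light after 72 h; 0% = infected wells without compound and 100% = uninfected wells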
Arbovirus inh repeat: second read-out of Arbovirus inh, no call of its own (marks repeat the call); inhibition, %; measured here: 10K subset replicate screen; many hits read low in the repeat;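 first of two repeat runs on a subset; 0% = infected and 100% = uninfected wells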
Starred values were filed as active, the others as inactive; ? = inconclusive; / = no result given. These rows are one share of the data (hit frequency here may not be typical).

SMILES	Mtb growth	YopH PTP inh	RecA intein inh	Mtb bLac sens	Arbovirus inh	others
COC(=O)c1ccc(C(=O)Nc2ccc3nc(-c4ccncc4)[nH]c3c2)cc1	/	/	1.8	4	/
C=CCn1c(-c2cccn(Cc3ccccc3)c2=O)n[nH]c1=S	-9%	-39	1.9	-11	-1
Cc1c(OCC(=O)NCCCn2ccnc2)ccc2c3c(c(=O)oc12)CCCC3	/	/	1.5	69	/
O=C(O)/C=C/C(=O)c1c(-c2ccccc2)[nH]c2ccccc12	/	/	10	4	/
COc1ccc(NC(=O)c2cccnc2N2CCOCC2)cc1	5%	/	4.6	-7	3
CC(OC(=O)c1ccccc1C(=O)N(C)c1ccccc1)C(=O)Nc1ccccc1[N+](=O)[O-] (stereo unspecified)	/	/	-3.3	2	/
COc1cccc(NC(=O)C2CCN(S(=O)(=O)c3ccc4c(c3)NC(=O)CO4)CC2)c1	/	/	-2.2	0	/
O=C1COc2ccc(N3C(=O)c4ccccc4C3=O)cc2N1	-3%	/	-1.0	0	2
CC(C)c1ccc(C2C(C(=O)c3ccco3)=C(O)C(=O)N2CCN2CCOCC2)cc1 (stereo unspecified)	/	/	0.1	3	/
O=C(NCC1CCCO1)c1cc2n(n1)C(C(F)(F)F)CC(c1ccc(Br)cc1)N2 (stereo unspecified)	-5%	-33	/	1	-4
O=C(N/N=C/c1ccc([N+](=O)[O-])o1)C1CCCC1	/	/	11	90	/
O=C(CS(=O)CC(=O)N(c1ccccc1)C(C(=O)NC1CCCCC1)c1ccco1)Nc1ccc(F)cc1 (stereo unspecified)	-13%	-25	0.8	3	8
Cc1cc2ncn(-c3ncnc4scc(-c5ccccc5)c34)c2cc1C	/	-15	11	13	7
COc1ccc(CCN2CC(C(=O)N3CCSCC3)CCC2=O)cc1 (stereo unspecified)	/	/	-1.7	-2	/
CN(CCNC(=O)c1cc2c(-c3ccccc3F)nn(C)c2s1)C1CCCCC1	/	/	-0.4	5	/
O=C(NCc1csc(-c2cccs2)n1)C1CCCCC1	-9%	/	2.0	-2	/
C1CCC2=NCCCN2CC1	-9%	0	-2.3	-17	6
COc1ccc(C(=O)COC(=O)[C@H](C)Nc2ccc(C(F)(F)F)cc2[N+](=O)[O-])cc1	8%	5	-6.5	96	6
COc1cccc(Cn2c(-c3nonc3N)nc3ccccc32)c1	0%	13	-0.8	6	-22
O=Nc1c(O)[nH]c2ccc(Cl)cc12	-5%	/	3.1	1	-1
COc1ccc(N2CCN(c3ncccn3)CC2)cc1	-4%	-16	4.6	-2	-7
O=C(Cc1cccs1)NC(c1ccccc1)c1ccccc1	1%	/	3.0	-10	0
CC(C)(C)OC(=O)N1CC(O)CC1C(=O)OCC(=O)c1ccc(-c2ccccc2)cc1 (stereo unspecified)	-1%	/	4.3	5	-3
Cc1ccc(C)c(NC(=O)CSc2nnc(-c3ccccc3)n2N)c1	6%	-27	17	9	-2	Arbovirus inh repeat=3
O=C(Nc1cc(Cl)cc(Cl)c1)Nc1cnccn1	/	/	-0.4	63	/
Cc1ccc(F)c(CNC(=O)C2CCC(=O)N(Cc3ccccn3)C2)c1F (stereo unspecified)	/	/	3.2	-7	/
CC12CC(c3ccccc3O1)N(C(=O)c1ccc(Br)o1)C(=O)N2c1ccccc1 (stereo unspecified)	-9%	-16	-1.5	-6	-5
O=C(Nc1ccccc1Cl)Oc1ccc(-c2ccccc2)cc1	60µM*	/	4.8	74	/
NC(=O)c1cc(S(=O)(=O)NCc2ccccc2)cs1	/	/	1.2	8	/
CCOC(=O)Nc1ccc2c(c1)N(C(=O)CCN1CCN3CCCC3C1)c1ccccc1CC2 (stereo unspecified)	/	-8	1.2	1	-2
CCS(=O)(=O)N1CCCC(C(=O)NC2CCC(C)CC2)C1 (stereo unspecified)	-8%	-34	0.8	-6	1
Cc1ccccc1C([O-])=Nc1ccc[n+](-c2nc3ccccc3nc2NS(=O)(=O)c2ccccc2)c1	-4%	/	2.2	3	/
CN(C(=S)NC(=O)c1ccccc1)c1c(N)n(Cc2ccccc2)c(=O)[nH]c1=O	-1%	/	-4.1	-3	/
Cc1c(N2C(=O)CSC2=S)c(=O)n(-c2ccccc2)n1C	1%	/	2.1	3	1
O=C(CN1c2ccccc2Sc2ccccc21)N/N=C/c1ccc(Cl)cc1Cl	7%	/	-5.4	10	/
CC1CCN(c2ccc(NC(=O)Cn3c(=O)oc4ccccc43)cc2)CC1	/	/	-1.4	6	/
O=S(=O)(c1cccc2nsnc12)N1CCNCC1	/	/	-1.0	-10	/
Cc1noc(C)c1C(=O)Nc1c(F)cc(F)cc1Br	4%	4	-0.5	-1	-1
Cc1cc(CO)nn1-c1ccc([N+](=O)[O-])cc1	-12%	/	0.1	-3	/
CCCC(CCC)c1nc2ccncc2[nH]1	5%	/	-0.2	-2	4

Retrieved one by one from the entries so far (seven):
SMILES	Mtb growth	YopH PTP inh	RecA intein inh	Mtb bLac sens	Arbovirus inh	others
O=C(CN1c2ccccc2Sc2ccccc21)N/N=C/c1ccc(Cl)cc1Cl	7%	/	-5.4	10	/
Cc1ccccc1C([O-])=Nc1ccc[n+](-c2nc3ccccc3nc2NS(=O)(=O)c2ccccc2)c1	-4%	/	2.2	3	/
CN(C(=S)NC(=O)c1ccccc1)c1c(N)n(Cc2ccccc2)c(=O)[nH]c1=O	-1%	/	-4.1	-3	/
O=S(=O)(c1cccc2nsnc12)N1CCNCC1	/	/	-1.0	-10	/
CCS(=O)(=O)N1CCCC(C(=O)NC2CCC(C)CC2)C1 (stereo unspecified)	-8%	-34	0.8	-6	1
Cc1c(N2C(=O)CSC2=S)c(=O)n(-c2ccccc2)n1C	1%	/	2.1	3	1
Cc1cc(CO)nn1-c1ccc([N+](=O)[O-])cc1	-12%	/	0.1	-3	/

(listing goes on)
SMILES	Mtb growth	YopH PTP inh	RecA intein inh	Mtb bLac sens	Arbovirus inh	others
CCC(C)[C@H](NC(=O)NC(C)C)C(=O)O (stereo partly specified)	1%	-9	-4.1	-2	2
Cc1nc2c(sc3nc4c(cc32)COC(C)(C)C4)c(=O)n1CC(=O)NCc1ccco1	4%	-31	1.3	-10	-13
COc1ccc(C(=O)N2CCN(C3CCCCC3)CC2)c(OC)c1	0%	-1	-3.2	-5	2
COc1ccccc1C(=O)Nc1c(-c2ccccc2)nc2ccccn12	/	/	-1.4	12	/
CCOC(=O)N1CCc2c(sc(NC(=O)CN(CC)CC)c2C#N)C1	1%	/	/	-10	/
O=C(CSc1nc(C(F)(F)F)cc(=O)[nH]1)Nc1cccc2ccccc12	/	/	0.1	-8	/
COc1cc(O)c(C(CCN2CCOCC2)c2ccc(N(C)C)cc2)c(OC)c1 (stereo unspecified)	14%	/	-3.8	-2	/
Cc1ccc(S(=O)(=O)N2CCCOC2CNC(=O)C(=O)NC2CCCCC2)cc1 (stereo unspecified)	9%	/	/	-2	-1
COc1ccc(/C=C/C(=O)OCC(=O)NCCNC(=O)COC(=O)/C=C/c2ccc(OC)cc2)cc1	/	/	1.4	-9	/
OCCCCCN=c1cc(-c2ccccc2)oc2ccc(Cl)cc12	7%	-1	0.4	-6	-36

The list goes on; the last 2 above are carried over.
SMILES	Mtb growth	YopH PTP inh	RecA intein inh	Mtb bLac sens	Arbovirus inh	others
COc1ccc(/C=C/C(=O)OCC(=O)NCCNC(=O)COC(=O)/C=C/c2ccc(OC)cc2)cc1	/	/	1.4	-9	/
OCCCCCN=c1cc(-c2ccccc2)oc2ccc(Cl)cc12	7%	-1	0.4	-6	-36
COc1cc(/C=N/n2cnnc2)ccc1OCCOc1ccccc1	0%	-37	1.5	-8	-1	Arbovirus inh repeat=-1
CN1CCc2c(c(N3CCCCC3)nc3n[nH]c(N)c23)C1	-6%	-24	-2.6	-18	6
Cn1c(=NC(=O)CSCC(=O)N2CCCCC2)sc2ccccc21	1%	9	0.3	-4	4
COc1ccc(C(=O)Nc2nc(N3C(=O)c4ccccc4C3=O)n(-c3ccccc3)n2)cc1	-7%	-47	0.8	-12	2
COc1cc(/C=N/NC(N)=O)ccc1OC(=O)c1ccco1	2%	/	/	0	0
O=c1[nH]cnc2cc(-c3ccc(Br)cc3)sc12	/	/	-0.4	77	/
O=C1NC2(CCCCCC2)Cc2ccccc21	3%	9	0.6	9	-3
Cc1nnc(N2C(=O)C(=O)/C(=C(/O)c3ccc4c(c3)CC(C)O4)C2c2ccccc2F)s1 (stereo unspecified)	/	/	-2.3	-3	/
Cc1ccccc1-c1nc(CS(=O)CC(=O)NCc2ccccc2)c(C)o1 (stereo unspecified)	-5%	/	0.3	-3	4	Arbovirus inh repeat=-2
COc1ccc(/C=N/NC(=O)c2[nH]ncc2Br)c(OC)c1	-9%	-31	-1.4	4	-4
Cc1cc(Br)c(NC(=O)CCl)c(Br)c1	10%	-22	9.4	99	27
Cc1cc(Br)c(NC(=O)COn2nnc3ccc(S(C)(=O)=O)cc32)c(Br)c1	7%	/	0.7	-4	4
Cc1ccc(NC(=O)CC2S/C(=N/N=C/c3ccco3)NC2=O)cc1Cl (stereo unspecified)	8%	/	0.9	3	-9
CCOc1ccc(N(C(C)C(=O)NC(C)CC)S(C)(=O)=O)cc1 (stereo unspecified)	-4%	7	-0.8	3	12
O=C(O)c1ccc(NCc2cccc(Br)c2)cc1	7%	-25	-4.0	-1	5
Cc1ccc(NC(=O)CN(C)S(=O)(=O)c2cccc3cccnc23)cc1C	/	/	1.3	-4	/
Cn1nc(C(=O)NC2CCCCCC2)ccc1=O	-8%	-124	3.0	0	-3
O=C(CCCn1nnnc1CN1CCOCC1)N1CCN(c2ccccc2F)CC1	/	/	-1.7	-3	/
Cc1ccc(S(=O)(=O)C2CS(=O)(=O)CC2O)cc1 (stereo unspecified)	0%	-30	-2.5	2	3
Cc1ccc2nc(NC(=O)C3CCN(S(=O)(=O)c4cccs4)CC3)sc2c1	14%	-42	0.0	0	30
CCC(CC)c1nc(C(N)=O)c2[nH]c(=O)n(-c3ccc(OC)c(OC)c3)c2n1	/	/	-1.3	?	/
CC(=O)c1cc(C#N)c(SCc2ccccc2C#N)nc1C	-4%	48	2.5	-22	-13
Cn1nnnc1NCc1cccc(Cl)c1	-4%	/	-1.2	-10	8
Fc1cccc(COc2ccccc2CNc2ccccc2)c1	15%	-3	14	-3	9
Cc1ccc(-n2nc(C)c3c(C)c(CCC(=O)O)c(C)nc32)cc1C	/	/	0.8	3	/
CC(=O)N1CC=CC1(C)C(=O)NCc1cc(F)cc(C(F)(F)F)c1 (stereo unspecified)	-4%	-35	-1.4	-7	7
Cc1oc(-c2ccc(Cl)cc2)cc1-c1nn2c(-c3ccoc3C)nnc2s1	-4%	13	12	28	6
CCOC(=O)C1(Cc2cccc(OC)c2)CCN(C/C=C/c2ccc(OC)cc2)CC1	?	/	3.1	-6	-4
CN(C)CCN(C(=O)c1ccc(S(=O)(=O)N2CCCC2)cc1)c1nc2ccc(Br)cc2s1	/	/	2.2	-11	/
COC(=O)CCCC1=CC2=CC(=O)C(C)(OC(=O)C3CCCC3)C(=O)C2=CO1 (stereo unspecified)	2%	/	-2.8	-2	/
CC(=O)Nc1cc2c(cc1NC(=O)Cn1nc(-c3ccc4c(c3)OCCO4)ccc1=O)OCCO2	-9%	-7	1.6	1	3
CCN(CC)C(C(=O)Nc1ccc2c(c1)OCO2)c1ccccc1 (stereo unspecified)	-3%	-19	1.3	-10	-7
O=c1c(Cc2ccc(F)cc2)c(O)ccn1C1CC1	7%	-45	-1.5	-4	1
CCCCCn1c(N2CCC(Cc3ccccc3)CC2)nc2c1c(=O)[nH]c(=O)n2C	12µM*	-41	4.1	94	-28	Arbovirus inh repeat=-14
Cc1ccc(SCC(=O)NCCN2C(=O)CSC2=O)cc1C	-2%	-24	1.1	-1	-2
COc1ccc(OC)c(/C=C2\SC(=S)N(C(C(=O)O)c3ccccc3)C2=O)c1 (stereo unspecified)	3%	/	0.0	10	/
O=C(Nc1cccc(F)c1)C1CCN(C(=O)c2ccc(Cl)cc2)CC1	-1%	-9	2.0	-4	17
